High-throughput results deposited in PubChem by National Center for Advancing Translational Sciences (NCATS).
VACV mCherry inh – qHTS for Stage-Specific Inhibitors of Vaccinia Orthopoxvirus: mCherry Reporter Primary qHTS; Vaccinia virus mCherry reporter infection, fluorescence; about a quarter of the inactives have no number; Potency, µM (top dose mostly 36.5 µM), without a hit: at the highest dose activity change, negative = inhibition, usual class: inhibitors; hit rate 0.63% among 310,000; active = well fitted inhibition curve with a large enough effect; inconclusive = small, poorly fitted or top-dose-only effect; inactive = no such curve, though single readings can be large or run the other way; tested in A549 cells; further: nearly all actives have a fitted effect of over 35% in size; inactives centre near -10
VACV Venus inh – qHTS for Stage-Specific Inhibitors of Vaccinia Orthopoxvirus: Venus Reporter Primary qHTS; Vaccinia virus Venus reporter expression, fluorescence; Potency, µM (top dose mostly 36.5 µM), inactives show at the highest dose activity change, negative = inhibition, most hits filed as inhibitors; hit rate 0.46% among 330,000; AID 720580, 2013; active means well fitted inhibition curve with a large enough effect; inconclusive means small, poorly fitted or top-dose-only effect; inactive means no such curve, though single readings can be large or run the other way; tested in A549 cells; further: nearly all actives have a fitted effect of over 30% in size; inactives centre near -10
Numbers without * were called inactive; i = inactive; ? = inconclusive; . = no result given; & = joins results of further samples; [ ] = remark or other dose. On the % scale 0 is the no-effect control and ±100 the full control effect; potency means the concentration at half of the fitted maximal effect.

structure	VACV mCherry inh	VACV Venus inh
COC(OC)C12c3ccccc3C(c3ccccc31)C1C(=O)N(c3cccnc3)C(=O)C12 (stereo not drawn)	-14.0%	-4.5%
CCC(=O)Nc1ccc(C(=O)CSc2nnc(-c3cccnc3)o2)cc1	-30.9%	-24.9%
CCOC(=O)c1c(-c2ccc3ccccc3c2)csc1NC(=O)CCCC(=O)O	i	-9.0%
Cc1ccc(C)c(C(=O)CN2C(=O)NC3(CCCCCC3)C2=O)c1	-19.9%	-27.5%
O=C(NCCc1csc(-c2cccnc2)n1)c1cccs1	i	-18.8%
C#CCOCCOCCOCCNc1nc(N2CCOCC2)nc(N2CCN(C(=O)[C@H]([C@@H](C)CC)n3cc([C@@H](N)CO)nn3)CC2)n1	i	-4.3%
COc1ccc(C(=O)NC2=NCCS2)c(OC)c1	2.6%	-6.3%
Cn1c(C(=O)N2CCc3ccccc3C2)cc2oc3ccccc3c21	.	-12.9%
Cc1csc(NC(=O)CSc2nncs2)n1	-11.3%	-2.3%
CCN(CC(=O)NCCc1ccccc1)S(=O)(=O)c1ccccc1	-2.0%	0.7%
Cc1ccc(NC(=O)c2ccco2)cc1	-0.7%	-8.8%
CCOC(=O)c1nn(-c2ccccc2)c(=O)c(C#N)c1C	0.9%	6.3%
Cc1ccc(NC(=O)COC(=O)c2ccc3c(c2)C(=O)N(CCc2ccccc2)C3=O)c(C)c1	-8.5%	3.6%
Cc1ccc(CN2CCC(CNC(=O)C3CCCN(c4ncnc5c4nc4n5CCCCC4)C3)CC2)cc1 (stereo not drawn)	i	-17.7%
CCn1c2c(c(=N)c3c1CCC3)CCC2	-10.8%	18.9%
Cc1ccc(C)c(OCCCC(C)(C)C(=O)O)c1	-1.5%&-14.1%	-18.7%&-3.7%&-10.1%
COc1ccc(/C=C(/NC(=O)c2ccc([N+](=O)[O-])cc2)C(=O)NC(C)(C)C)cc1	0.3%	-4.3%
O=C(NC(Nc1ncccn1)C(=O)c1ccccc1)c1ccccc1 (stereo not drawn)	.	-7.0%
CCOC(=O)/C=c1\s/c(=C\c2ccc(C(=O)OC)cc2)c(=O)n1CC(=O)Nc1ccccc1	i	0.8%
Cc1ccc(-c2csc(NC(=O)CSc3nc4ccccc4c(=O)n3CCCN(C)C)n2)cc1	-8.6%	-4.8%
O=[N+]([O-])c1cc(C(F)(F)F)c(Cl)c([N+](=O)[O-])c1Nc1ncc(C(F)(F)F)cc1Cl	?	?
CC(C)Nc1ccc(Nc2ccccc2)cc1	-4.7%	-2.6%
COc1ccc(N2CCN(S(=O)(=O)CCNC(=O)c3cccs3)CC2)cc1	-17.1%	-10.3%
Cc1[nH]n(CCC#N)c(=O)c1CC(=O)N1CCN(c2ccccc2)CC1	-14.0%[1.46 µM]	-9.1%
O=C(Nc1nccs1)c1cn(-c2ccccc2)nc1-c1ccccc1	.	?
CCCn1nnnc1SCC(=O)NC1CCCC1	12.5%	-2.2%
CC1CC(C)CN(C(=O)COC(=O)c2cccc(S(=O)(=O)N(C)c3ccccc3)c2)C1 (stereo not drawn)	-18.0%	-12.0%
COCCN1C(=O)CN(S(C)(=O)=O)CC1(C)C(=O)NC(C)C (stereo not drawn)	i	10.3%
CCOC(=O)c1ccc(N2C(=O)CC(N3CCC(C(=O)OCC)CC3)C2=O)cc1 (stereo not drawn)	.	-9.5%
COC(=O)c1nc(NC(=O)c2ccc(C(C)(C)C)cc2)n[nH]1	11.0%	-12.8%
O=Cc1cc2ccccc2nc1SCc1ccc(Cl)cc1	?	0.0%
COc1ccc(-c2[nH]ncc2CN(C)Cc2ccccn2)c(OC)c1	-19.0%	-11.7%
COc1cccc(-c2nc(CS(=O)(=O)CC(=O)Nc3ccc(C)c(Cl)c3)c(C)o2)c1	-6.2%	-10.2%
CC(NC(=O)COc1ccccc1)C(c1cccs1)N1CCCC1 (stereo not drawn)	-7.9%	-15.0%
COc1ccc(Cn2nnc(C(=O)Nc3ccc(F)cc3)c2N)cc1	-5.2%	-7.8%
O=C(COC(=O)c1cccc(N2C(=O)c3ccccc3C2=O)c1)Nc1ccccc1	i	-8.5%
CCOc1ccc(Br)cc1/C(C)=N\NC1=NCCN1	.	?
Cc1ccc(S(=O)(=O)N[C@@H](Cc2ccccc2)C(=O)CCl)cc1	-14.3%	?
CCc1noc(C)c1C(=O)Nc1nc(-c2ccc(Cl)cc2Cl)c(C)s1	-16.5%	-13.4%
Fc1ccc(COc2ccc(-c3nnco3)cc2)cc1	-4.0%	-13.3%
C/C(=C/C(=O)O)C(=O)Nc1cccc(C(F)(F)F)c1	i	1.7%
COc1ccc(N2CCN(C(=O)Cc3c(C(=O)O)c(C)cn3C)CC2)cc1	-12.1%	-12.5%
COc1ccc([C@H]2CC(=O)C=C(c3ccc(C)cc3)C2)cc1	i	-14.8%
O=C(O)c1cccc(NS(=O)(=O)c2ccc3c4c(cccc24)C(=O)N3)c1	i	-0.2%
Cc1ccc(NC(=O)CSCC(=O)Nc2cc(C(F)(F)F)ccc2N2CCOCC2)cc1	?	?
CC(C)NC(=O)Cn1nnc(-c2ccccc2)c1COc1ccc2ccccc2c1	-14.7%	-8.9%
COc1ccc(CN2C(=O)C(Cc3ccccc3)Nc3ncnc(N4CCCCC4)c32)cc1 (stereo not drawn)	i	-5.9%
CCN(Cc1ccccc1)C(=O)C1CCN(S(=O)(=O)c2ccc3c(c2)OCCO3)CC1	-14.1%	-9.6%
CN(CC(=O)NCCc1ccccc1)Cc1ccco1	-12.1%	-10.3%
COc1ccc(NC(=O)C2=C(C)Nc3ncnn3C2c2ccc(O)cc2)cc1 (stereo not drawn)	8.9%	2.2%

Other records
structure	VACV mCherry inh	VACV Venus inh
CCOc1ccc(NC(=O)C2CCN(S(=O)(=O)c3ccc4c(c3)oc(=O)n4C)CC2)cc1	6.6%	2.7%
CN(C)c1ccc(CN2CCCCC2)cc1	i	-6.3%
Cc1ccc(S(=O)(=O)N(C)C)cc1NC(=O)C1CCN(C(=O)Nc2ccccc2)CC1	8.2%	4.4%
Cc1cn2c(=O)cc(COc3ccccc3NC(=O)c3ccccc3C)nc2s1	-7.4%	1.5%
CC(C)NC(=O)NC(=O)COC(=O)c1ccc(OC(F)(F)F)cc1	i	-7.5%
CCCCn1cc(S(=O)(=O)c2cccc(C)c2)c(=O)c2cc(F)c(N3CCOCC3)cc21	i	-12.6%
COc1ccc(N=Cc2sc(O)c3ccccc23)cc1	i	7.6%
COc1ccc(Nc2oc(-c3ccccc3Cl)nc2C#N)cc1	?	?
O=C1CSC(=S)N1/N=C/c1ccc(C(F)(F)F)cc1	4.4%	11.0%
COc1ccccc1NC(=O)c1ccc(Br)c(S(=O)(=O)N2CCCC2)c1	-20.1%	-23.5%
CCN(C(=O)COC(=O)c1c2c(nc3ccccc13)/C(=C/c1ccccc1)CC(C)C2)C1CCS(=O)(=O)C1 (stereo not drawn)	-23.6%	?
Cc1cnc(C(=O)Nc2ccc(C)c(S(=O)(=O)N(C)C)c2)cn1	i	-2.0%
CC1CCCCN1C(=O)c1ccc2c(c1)N(Cc1cccc(Cl)c1)C(=O)c1ccccc1S2=O (stereo not drawn)	-1.4%	-12.7%
OC1(c2ccc3c(c2)CN(Cc2nccs2)CCO3)CCN(c2ccccc2F)CC1	-11.7%	0.0%
CCN(CC)CCNC(=O)c1cc(S(C)(=O)=O)ccc1OC	-4.7%&-17.1%	-17.6%&-8.7%
Cc1cc(NC(=O)NC(=O)c2ccccc2NC(=O)CN)ccc1Oc1ncc(Br)cn1	-22.6%	?
Cc1ccc(C2=NCCn3c2c2ccc(C(F)(F)F)cc2[n+]3[O-])cc1	-5.4%	-13.0%
COc1ccc(Cc2nnc(NC(=O)c3ccccc3)s2)cc1OC	-4.9%	-4.2%
C/C(=N\NC(=O)CCc1c[nH]c2ccccc12)c1cccc([N+](=O)[O-])c1	?	-25.3%
COc1ccc(NC(=O)c2nc(S(C)(=O)=O)ncc2N(Cc2ccc(C)cc2)Cc2ccco2)cc1Cl	-14.1%	-9.6%
Cc1ccccc1NC(=O)Nc1nnc(N2CCCCCC2)s1	-5.4%	-6.2%
Cc1cccc(C(=O)Nc2ccc(OCc3cc(=O)n4ccc(C)cc4n3)cc2)c1	-8.2%	-8.3%
COc1ccc(CNC(=O)c2ccc(-c3nc(CSc4ccccc4)c(C)o3)cc2)c(OC)c1	-3.1%	7.2%
Cc1ccc(Cn2c(=O)c3cccnc3n(CC(=O)Nc3cccc(C(F)(F)F)c3)c2=O)cc1	-26.1%	5.6%&-16.2%
CCOc1cccc(CC(=O)N2CCc3c([nH]c4ccccc34)C2c2ccc(SC)cc2)c1OCC (stereo not drawn)	-15.9%	-13.0%

Structures from the list above that have two or more sulfur atoms:
structure	VACV mCherry inh	VACV Venus inh
O=C(NCCc1csc(-c2cccnc2)n1)c1cccs1	i	-18.8%
Cc1csc(NC(=O)CSc2nncs2)n1	-11.3%	-2.3%
Cc1ccc(-c2csc(NC(=O)CSc3nc4ccccc4c(=O)n3CCCN(C)C)n2)cc1	-8.6%	-4.8%
COc1ccc(N2CCN(S(=O)(=O)CCNC(=O)c3cccs3)CC2)cc1	-17.1%	-10.3%
O=C1CSC(=S)N1/N=C/c1ccc(C(F)(F)F)cc1	4.4%	11.0%

Next records:
structure,VACV mCherry inh,VACV Venus inh
O=C(Nc1ncn[nH]1)c1cccc(F)c1,i,1.9%
CCc1ccccc1NC(=O)c1ccc2c(SCC(=O)O)c3c(nc2c1)CCC3,2.2%,-2.5%
O=C(CSc1nc2[nH]ncc2c(=O)[nH]1)NCc1ccccc1Cl,i,0.1%
CC(=O)Nc1ccc(/C=N/NC(=O)CNC(=O)c2ccccc2)cc1,-0.1%,-4.0%
CC1(C)CC(=O)C(C=Nc2ccc(Cl)cn2)=C(O)C1,-7.8%,-3.1%
COCCn1cnc2c1c(=O)n(CC(=O)OCC(=O)NCCCc1ccccc1)c(=O)n2Cc1ccccc1,i,-14.9%
COc1ccc(-c2[nH]ncc2CN(CCO)Cc2cccs2)c(F)c1,-9.9%,-7.1%
Cc1nc2c(C(=O)NCc3ccc(F)cc3)c[nH]n2c(=O)c1Cl,i,-16.6%
CCOC(=O)Cc1csc(N/C(=N/S(=O)(=O)c2ccc(Cl)cc2)c2ccccc2)n1,-8.5%,-11.0%
COc1ccccc1N(CC(=O)NCc1ccccc1)C(=O)CCC(=O)Nc1ccccn1,-4.9%,-2.7%
C[C@@H]1CN([C@H](C)CO)C(=O)CCCn2nncc2CO[C@H]1CN(C)C(=O)Nc1cccc2ccccc12,-3.7%,-13.6%
CCCCNC(=O)COCc1cc(-c2ccc3c(c2)OCO3)on1,3.8%,3.0%
COC(=O)c1ccc(C(=O)N2CCCC(N3CCN(c4ccc(F)cc4)CC3)C2)nc1 (stereo not drawn),-21.0%,-14.0%
Cc1ccc(CO/N=C\Cc2snc(Sc3ncc(C(F)(F)F)cc3Cl)c2C#N)cc1,.,-13.2%
CCN(CCn1cccn1)Cc1nc(Cc2cccc(F)c2)no1,i,-14.6%
Cc1ccccc1-c1cc(C(=O)NCc2ccc3c(c2)OCO3)nn1CC1CC(c2cccc([N+](=O)[O-])c2)=NO1 (stereo not drawn),?,-12.4%
Cc1ccccc1C(=O)Nc1ccccc1C(=O)NC1CC1,1.0%,6.8%
COC(=O)CNC(c1ccccc1Cl)c1cc(Br)ccc1NC(=O)CCN1CCOCC1 (stereo not drawn),.,?
CCOc1nc(C#N)nc(N2CCOCC2)n1,41.8%[activator],-8.4%
CC(C)C(O)(C(=O)NNc1ccccc1)C(C)C,-12.6%,-4.5%
Cc1cc(C)c2cc(CN(CC3CCCO3)C(=S)NCc3ccco3)c(=O)[nH]c2c1 (stereo not drawn),?,-29.8%
O=C1C2C(C(=O)N1/N=C/c1cc([N+](=O)[O-])ccc1O)C1C=CC2C12CC2 (stereo not drawn),-17.4%,-18.2%
CC(C)N1CCC1(C)C(=O)Nc1ccccc1OC(F)F (stereo not drawn),-14.1%,-19.8%
COc1ccc(NC(=O)CN2C(=O)CSC2=O)cc1,-17.8%,-5.4%
COc1ccccc1NC(=O)c1ccc2snnc2c1,-0.8%,-9.1%
CCOc1ccc(-c2cn3c(n2)sc2cc(C(=O)NCCCN(CC)CC)ccc23)cc1,?,?
CC(C)CC(CO)N1CCN(C(=O)c2ccc(Cl)cc2Cl)CCC1=O (stereo not drawn),i,-18.8%
O=C(Nc1nc2c(s1)CCCC2)c1ccccc1F,-9.4%,-13.9%
Cc1cccc(-c2noc(CCC(=O)Nc3ccccc3)n2)c1,i,-7.1%
CC(C)NC(=O)N(C)C[C@H]1Oc2cc(C#Cc3ccc(F)cc3)ccc2S(=O)(=O)N([C@H](C)CO)C[C@H]1C,?,-26.7%
COc1ccc(/C=C2\N=C(c3ccc(C)cc3)OC2=O)cc1,-12.6%,-3.7%
Cc1cccc(N(CC(=O)N/N=C/c2ccc(OCC(=O)NCc3ccco3)cc2)S(C)(=O)=O)c1C,.,?
